Compound activity from PubChem.
FGF22 binding = binders of recombinant human FGF22 by thermal shift. Q9HCT0. SYPRO orange fluorescence; percent of sucrose octasulfate shift, DMSO zero. calls only at 9.99 µM. actives 1.5% (n = 340,000). AID 651658;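 active = melting point raised past a set limit in the mean and every replicate; inconclusive = no clear call; three in four hits are not shown here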
Target sequence (Q9HCT0 whole entry, looked up): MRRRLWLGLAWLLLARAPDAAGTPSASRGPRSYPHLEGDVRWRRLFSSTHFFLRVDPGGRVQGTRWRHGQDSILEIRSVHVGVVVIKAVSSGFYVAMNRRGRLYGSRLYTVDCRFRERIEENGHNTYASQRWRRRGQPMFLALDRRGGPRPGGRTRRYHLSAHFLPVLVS
MLL AF4-AF9 inh = inhibitors of human MLL-AF4/AF9 interaction. actives 0.47% (n = 350,000). AID 651704. inhibition, % at 10 µM. AlphaScreen, biotin-AF4 peptide binding to FLAG-AF9;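 active = every replicate reaching a set inhibition limit, whatever the replicate mean, cut at about 25% in these data; inconclusive = mean inhibition reaches that limit but some replicates miss it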;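 also: 0% = plate neutral control median and 100% = total signal loss; the record names both 10 and 1 µM as test concentration; the first replicate is given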
ALR H2O2 inh = blocks human ALR sulfhydryl oxidase activity. purified ALR, DTT oxidation, H2O2 HRP-luminol luminescence. inhibition, % (no concentration beside the values). actives 3.8% (n = 290,000);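 active = mean and each replicate at 75% or more; inconclusive = only one of the two met; inactive = neither met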;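 also: stock transfer was 7.5 nL into about 7.5 µL; 0% = neutral wells and 100% = wells with inactivated enzyme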
Target sequence (P55789 whole entry, looked up): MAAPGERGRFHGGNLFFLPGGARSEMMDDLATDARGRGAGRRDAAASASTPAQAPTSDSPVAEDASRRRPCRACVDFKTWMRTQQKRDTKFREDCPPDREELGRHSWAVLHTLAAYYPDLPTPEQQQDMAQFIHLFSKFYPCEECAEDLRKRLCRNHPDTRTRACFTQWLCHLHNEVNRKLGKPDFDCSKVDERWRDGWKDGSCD
Vif TR-FRET = inhibitors of Vif binding to APOBEC3G peptide, primary screen, biochemical, TR-FRET, GST-Vif 1-94, biotin-A3G peptide, dose response retest (AID 1117319); TR-FRET GST-Vif / biotin-A3G peptide binding; higher % means a stronger effect; test concentration not given here; strong numbers were not always called active; one-dose inhibition, %; IC50 in µM for titrated hits; actives 0.57% (n = 260,000);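 active = above the screen mean plus three standard deviations and confirmed in dose response; inconclusive = results disagree or hit not tested in dose response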;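 also: Vif residues 1-94 fused to GST binding biotinylated APOBEC3G peptide 110-148; 0% = full assay without inhibitor and 100% = GST in place of GST-Vif; retest series ran down from 100 µM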
rRNA inh HTS = inhibitors of bacterial rRNA selective over humanized ribosomes | GFP signal change (wild-type ribosome), % (test concentration not listed) | E. coli WT GFP vs humanized-ribosome RFP mutants, fluorescence, 24 h; hits give low values; DMSO median 0, no signal -100 | actives 1.6% (n = 350,000) | AID 720706;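 active = significant combined selectivity score with lowered wild-type GFP, culture density cut under 30%, mutant RFP and density less affected; inactive = any of these conditions unmet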; also: one replicate is shown; some compounds called inactive have numbers as strong as hits
HNF4A DNA FP = change in binding of human HNF4 alpha to DNA. activity change, % at 10 µM. P41235. HNF4a-FITC DNA binding, fluorescence polarization, 1 h. actives 0.3% (n = 360,000). AID 1224865; in the data active = activity change above about 30%, passing the limit was not always enough;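 also: controls were the assay level and a saturating level of protein; the project sought stronger binding though the title names inhibitors; some compounds called inactive have numbers as strong as hits; positive values seem to mean higher polarization but the record does not say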
Target sequence (P41235 whole entry, looked up): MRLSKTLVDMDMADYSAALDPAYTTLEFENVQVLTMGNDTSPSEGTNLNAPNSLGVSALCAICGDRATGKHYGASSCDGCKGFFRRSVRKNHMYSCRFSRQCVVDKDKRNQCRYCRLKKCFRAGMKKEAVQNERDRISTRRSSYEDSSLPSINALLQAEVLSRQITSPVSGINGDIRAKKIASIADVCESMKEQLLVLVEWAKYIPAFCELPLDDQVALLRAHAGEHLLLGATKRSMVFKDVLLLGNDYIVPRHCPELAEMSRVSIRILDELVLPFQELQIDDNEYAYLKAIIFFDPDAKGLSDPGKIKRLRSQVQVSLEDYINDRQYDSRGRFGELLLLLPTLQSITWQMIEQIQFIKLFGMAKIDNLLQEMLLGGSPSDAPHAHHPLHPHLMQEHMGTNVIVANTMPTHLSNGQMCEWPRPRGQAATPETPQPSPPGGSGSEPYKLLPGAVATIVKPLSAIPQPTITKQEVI
Ecoli growth = E. coli growth inhibition; OD600 absorbance (test concentration not listed); Escherichia coli growth, OD600, 23 h; hits give low values; actives 0.21% (n = 330,000);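 active = OD600 absorbance below the run mean of sample wells minus 3.6 SD, in any replicate, cut at about 0.56 in these data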;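 also: stock transfer was 300 nL into about 60 µL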
rRNA inh HTS OD600 = second read-out of rRNA inh HTS, no call of its own (marks repeat the call); OD600 change, %; measured here: OD600 growth;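 optical density of the mix in the first replicate; 0 = DMSO median and -100 = no signal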
rRNA inh HTS RFP = recorded beside rRNA inh HTS, whose call it bears; RFP signal change, %; measured here: RFP humanized mutant strains;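 first replicate; 0 = DMSO median and -100 = no signal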
* = called active by the depositor; i = inactive; ? = inconclusive; nt = no result given; & = joins results of further samples. A portion of the library (hit frequency here may not be typical).

SMILES | FGF22 binding | MLL AF4-AF9 inh | ALR H2O2 inh | Vif TR-FRET | rRNA inh HTS | rRNA inh HTS OD600 | rRNA inh HTS RFP | HNF4A DNA FP | Ecoli growth
CCOCCCN1C(=O)C(O)=C(C(C)=O)C1c1cccs1 (centres undefined) | nt | nt | -1 | 1% | nt | nt | nt | 4.0 | 0.69
Clc1ccc(-n2nnnc2CN2CCOCC2)cc1Cl | nt | nt | -3 | -8% | nt | nt | nt | 1.4 | 0.72
COc1ccc(S(=O)(=O)N(C)C[C@H]2OCCCC[C@H](C)Oc3ccc(NC(=O)Nc4ccc(C(F)(F)F)cc4)cc3C(=O)N([C@@H](C)CO)C[C@@H]2C)cc1 | i | -9.8 | nt | nt | 4 | 6 | -1.5 | nt | nt
CCOC(=O)CCCCCC(=O)Nc1ccc2c(c1)C(=O)N([C@@H](C)CO)C[C@@H](C)[C@H](CN(C)C(=O)c1ccncc1)OCCCC[C@H](C)O2 | i | 2.8 | nt | nt | 2&0 | 7&2 | 0.6&-0.8 | -1.8 | nt
COc1ccc(NS(=O)(=O)c2cc(C(=O)N3CCN(C(C)=O)CC3)ccc2Cl)cc1 | i | -1.2 | -13 | ? | 10 | 10 | 2.2 | -1.9 | 0.71
C[C@@H]1CN([C@H](C)CO)C(=O)Cc2cc(NC(=O)c3ccncc3)ccc2O[C@@H]1CN(C)S(=O)(=O)c1cn(C)cn1 | i | -14 | nt | nt | 6 | 4 | -0.8 | nt | nt
COc1ccccc1C(=O)N1C[C@@H]2[C@H](c3ccccc31)[C@@H](CO)N2C(=O)C1CCCCC1 | i | 2.3 | nt | nt | -8 | 0 | -0.3 | nt | nt
CC(C)NC(=O)Nc1ccc2c(c1)C(=O)N([C@@H](C)CO)C[C@H](C)[C@H](CN(C)C(=O)NC1CCCCC1)O2 | i | -26 | nt | nt | 0 | 2 | -2.7 | nt | nt
COc1c(S(=O)(=O)N2CCCCC2)ccc2c(S(=O)(=O)N3CCCCC3)cccc12 | nt | nt | -21 | nt | nt | nt | nt | -2.4 | 0.67
Cc1ccccc1NC(=O)COC(=O)c1c(-c2ccccc2)noc1C | i | -2.0 | -4 | -10% | 0 | 15 | -0.6 | 0.7 | 0.69
CN1C(=O)CC(C(=O)O)SC1=Nc1cc(Cl)cc(Cl)c1 (centres undefined) | nt | nt | 3 | -2% | nt | nt | nt | -3.1 | 0.65
C#Cc1cccc(Nc2nc(NCc3ccccc3OC)nc3ccsc23)c1 | i | 0.9 | nt | nt | -23 | -47 | -2.8 | 1.4 | nt
CC1(C)CC(=O)C=C(c2ccc(-c3ccc(OC(F)(F)F)cc3)cc2)C1=O | i | 2.8 | nt | -7% | -12 | 1 | -2.6 | 2.9 | nt
COc1ccc(C(=O)Nc2ccc(C(=O)NCC3CCCO3)cc2)c(OC)c1OC (centres undefined) | i | 2.5 | nt | nt | 0 | -2 | -0.8 | 0.3 | 0.64
CC(=O)Nc1ccc(S(=O)(=O)Nc2nccc(C)n2)cc1 | i | -0.2 | -10 | ? | 17 | 19 | 0.6 | 1.3 | 0.65
FC(F)(F)c1ccc(-c2cccc3c2C2CC3CCN2Cc2ccccc2)cc1 (centres undefined) | i | 0.3 | nt | -3% | -17 | -34 | -8.4 | 3.5 | nt
Cc1ccc(N2C(=O)c3ccc(C(=O)N4CCN(c5ccccc5F)CC4)cc3C2=O)cc1 | i | -10 | -9 | -2% | -4 | 1 | 1.8 | -2.3 | 0.7
O=C1NC[C@@H](CCCCN2C[C@H](Cc3ccc(O)cc3)N(CC3CCCCC3)C(=O)C2=O)N(CC2CCCCC2)C1=O | i | -0.3 | nt | nt | -42 | -72 | -0.2 | 4.0 | nt
CCOC(=O)N(C)C[C@H]1OCc2cn(nn2)CCCC(=O)N([C@H](C)CO)C[C@H]1C | i | -1.0 | nt | nt | 3 | 1 | -0.5 | nt | nt
Cc1ccc(-c2nnn(CC(=O)N(c3ccccc3)C(C(=O)NC3CCCC3)c3ccncc3)n2)o1 (centres undefined) | i | -2.7 | nt | nt | 1 | 6 | -2.0 | -2.3 | 0.65
COc1ccc(N(C(=O)C2CCCCC2)S(=O)(=O)c2cccc3cccnc23)cc1 | nt | 2.4 | 0 | nt | -21 | -6 | 18 | 1.8 | 0.78
O=[N+]([O-])c1ccccc1OCc1nc(-c2cccs2)no1 | nt | -0.1 | -14 | 4% | 6 | 2 | 0.2 | 3.6 | 0.71
C[C@H](CO)N1C[C@H](C)[C@@H](CN(C)Cc2ccccc2)Oc2cc(-c3cncnc3)ccc2S1(=O)=O | i | 3.3 | nt | nt | -13 | -25 | 0.7 | nt | nt
COC(=O)c1cccc(NC(=O)c2cccc(N3C(=O)CCC3=O)c2)c1 | i | -1.2 | -2 | -4% | 1 | 9 | 0.6 | 3.8 | 0.69
CCC(=O)N1CC2(C1)CN(Cc1ccc3c(c1)OCO3)[C@@H](CO)c1c2c2ccc(OC)cc2n1C | i | -1.3 | nt | nt | -1 | 6 | -2.2 | nt | nt

Single records, from the list above:
Shown for COc1ccc(C(=O)Nc2ccc(C(=O)NCC3CCCO3)cc2)c(OC)c1OC (centres undefined) : FGF22 binding = i; MLL AF4-AF9 inh = 2.5; ALR H2O2 inh = nt; Vif TR-FRET = nt; rRNA inh HTS = 0; rRNA inh HTS OD600 = -2; rRNA inh HTS RFP = -0.8; HNF4A DNA FP = 0.3; Ecoli growth = 0.64
Shown for COC(=O)c1cccc(NC(=O)c2cccc(N3C(=O)CCC3=O)c2)c1 : FGF22 binding = i; MLL AF4-AF9 inh = -1.2; ALR H2O2 inh = -2; Vif TR-FRET = -4%; rRNA inh HTS = 1; rRNA inh HTS OD600 = 9; rRNA inh HTS RFP = 0.6; HNF4A DNA FP = 3.8; Ecoli growth = 0.69

Next section
SMILES | FGF22 binding | MLL AF4-AF9 inh | ALR H2O2 inh | Vif TR-FRET | rRNA inh HTS | rRNA inh HTS OD600 | rRNA inh HTS RFP | HNF4A DNA FP | Ecoli growth
CC(C)OC(=O)N(C)C[C@@H]1OCc2ccccc2-c2ccccc2C(=O)N([C@H](C)CO)C[C@@H]1C | i | -3.0 | nt | nt | 0 | -1 | -2.9 | nt | nt
Cc1ccc(-c2csc(NC(=O)Cn3cnc4c3c(=O)n(C)c(=O)n4C)n2)cc1C | nt | nt | 8 | ? | nt | nt | nt | 9.6 | 0.74
OCC1(Cc2ccccc2)CCN(Cc2ccc(C(F)(F)F)cc2)CC1 | i | 0.6 | 0 | -1% | -16 | -19 | 2.2 | -4.0 | 0.68
CN(C(=O)CSc1nc(O)cc(=O)n1-c1ccccc1F)c1ccccc1 | i | -4.2 | -1 | nt | 4 | 10 | -3.3 | 5.7 | 0.71
Cc1onc2c(=O)n(-c3ccccc3)nc(-c3ccccc3)c12 | i | -0.2 | -5 | -8% | -10 | 8 | -2.1 | 0.2 | 0.7
C[C@@H]1CN([C@@H](C)CO)C(=O)CCCn2nncc2CO[C@H]1CN(C)S(=O)(=O)c1cn(C)cn1 | i | -1.7&-0.5 | nt | nt | -3&1 | 1&3 | -1.5&-0.6 | -0.6 | nt
C#CC[N+](C)(C)C(C#Cc1ccccc1)CC=C (centres undefined) | nt | nt | nt | 18% | nt | nt | nt | 0.6 | 0.78
Cc1cccc(C(=O)N[C@H](C(=O)Nc2nc3ccc(S(C)(=O)=O)cc3s2)C(C)C)c1 | i | 0.3 | 3 | 8% | -8 | -12 | -6.6 | 1.0 | 0.74
COCCN(Cc1nc2ccccc2c(=O)[nH]1)C(=O)COc1cccc(C(C)=O)c1 | i | -3.1 | 1 | -6% | 1 | -4 | -0.1 | -2.1 | 0.68
C[C@@H]1CN([C@@H](C)CO)S(=O)(=O)c2ccc(C3=CCCC3)cc2O[C@H]1CN(C)C(=O)c1cnccn1 | i | -0.8 | nt | nt | -5 | -9 | -4.5 | nt | nt
O=C(NCc1ccco1)c1cnc2n(c1=O)CCS2 | nt | nt | 0 | 6% | nt | nt | nt | 2.2 | 0.69
CCCNC(=O)N1CC2(CCN(CC3CC3)CC2)c2c(n(C)c3cc(OC)ccc23)[C@@H]1CO | i | 14 | nt | nt | 3 | 11 | -1.0 | nt | nt
O=C(c1cc2nc(-c3ccc(F)cc3)cc(C(F)(F)F)n2n1)N1CCCCC1c1cccnc1 (centres undefined) | i | 13 | 14 | -6% | -3 | 5 | -0.3 | -1.3 | 0.72
Cc1c(Cl)cccc1NC(=O)Nc1ccccc1C(N)=O | i | -0.4 | -15 | -5% | 8 | 11 | 0.2 | -4.5 | 0.71
O=C(NNC(=O)c1ccco1)c1csc(N2CCOCC2)n1 | i | -1.1 | 3 | -1% | 2 | 11 | 3.0 | -5.4 | 0.69
Nc1cc(N)nc(SCC(=O)Nc2ccc(Br)cc2Cl)n1 | nt | nt | -9 | nt | nt | nt | nt | 3.1 | 0.68
COc1ccc(NC(=O)N(C)C[C@@H]2Oc3ccc(NS(=O)(=O)c4ccccc4)cc3CC(=O)N([C@H](C)CO)C[C@H]2C)cc1 | i | 0.5 | nt | nt | 1 | 11 | -2.0 | nt | nt
Cc1ccc(S(=O)(=O)NCC[C@@H]2CC[C@H](NS(=O)(=O)c3ccccc3Cl)[C@H](CO)O2)cc1 | i | -0.6 | nt | nt | -3 | -3 | 1.8 | nt | nt
CCOc1ccc(NC(=O)C2CCCN(S(=O)(=O)c3ccc(-n4cnnn4)cc3)C2)cc1 (centres undefined) | i | -0.4 | -7 | nt | 9 | 9 | 1.0 | -2.4 | 0.68
CCC(=O)N1C[C@@H](C)[C@@H](OC)CN(C)C(=O)c2cc(NC(=O)c3ccc(F)cc3)ccc2OC[C@@H]1C | i | 4.3 | nt | nt | -3 | -2 | -1.4 | nt | nt
C[C@H](CO)N1C[C@H](C)[C@@H](CN(C)Cc2ccncc2)Oc2ccc(NC(=O)Nc3ccc(F)cc3)cc2CC1=O | i | 7.2 | nt | nt | -5 | -6 | 3.5 | nt | nt
CCN(Cc1ccccc1)S(=O)(=O)c1c(C)n(C)c(=O)n(C)c1=O | i | -22 | -1 | 4% | -1 | 3 | 1.3 | -0.6 | 0.7
COC(=O)CN1C(=O)[C@@H]2[C@H](C1=O)[C@@H]1CC(C(=O)OC)=C[C@@H](C(=O)OC)[C@@H]3C1=C(C(=O)[C@@]3(C)NC(=O)c1ccccc1)[C@@H]2C | i | 1.0 | -13 | nt | 3 | -6 | 8.8 | -5.2 | nt
CO[C@@H]1CN(C)C(=O)c2ccc(NS(C)(=O)=O)cc2OC[C@H](C)N(Cc2cccnc2)C[C@@H]1C | i | -0.5 | nt | nt | 1 | 5 | -1.7 | nt | nt
O=C(N[C@H]1CC[C@H](CCNS(=O)(=O)c2ccccc2Cl)O[C@H]1CO)c1ccccc1 | i | -1.6 | nt | nt | 3 | -1 | -1.9 | nt | nt
O=C(Nc1ccc2nc3n(c(=O)c2c1)CCCCC3)c1ccccc1Cl | i | 1.2 | -18 | -6% | -11 | -7 | -13 | 1.7 | 0.68
O=C(C[C@@H]1C[C@@H]2c3cc(NC(=O)NC4CCCC4)ccc3O[C@@H]2[C@H](CO)O1)NCc1ccc2c(c1)OCO2 | i | -1.2 | nt | nt | 0 | -5 | 4.6 | nt | nt
COc1cccc(-n2c(=O)[nH]cc(C(=O)Nc3ccc4c(c3)OCCO4)c2=O)c1 | i | 4.6 | -2 | 2% | -3 | -16 | -0.2 | -1.4 | 0.71
Cc1cc(C)cc(NC(=O)CSc2nc(=O)n(CCN3CCOCC3)c3c2CCCC3)c1 | i | 3.2 | -18 | -5% | 8 | 0 | -0.5 | -2.6 | 0.62
Cc1ccsc1C(=O)NNC(=O)Nc1ccc(Cl)c(Cl)c1 | nt | nt | -3 | -7% | nt | nt | nt | -0.7 | 0.72
